HPGD block: blocks human HPGD enzyme activity; P15428; purified HPGD, NADH fluorescence kinetic, PGE2 substrate; Potency, µM, for the others: top-dose activity change, negative = inhibition, actives largely listed as inhibitors; 150,000 tested, 4.3% active; active = well fitted inhibition curve with a large enough effect (not every such curve was filed as active); inconclusive = small, poorly fitted or top-dose-only effect, or another doubt; inactive = no such curve, though single readings can be large or run the other way;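 note: top concentration of the series not given in the record; plate controls included wells without enzyme; inactives centre near -10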
Target sequence (P15428 whole entry, looked up): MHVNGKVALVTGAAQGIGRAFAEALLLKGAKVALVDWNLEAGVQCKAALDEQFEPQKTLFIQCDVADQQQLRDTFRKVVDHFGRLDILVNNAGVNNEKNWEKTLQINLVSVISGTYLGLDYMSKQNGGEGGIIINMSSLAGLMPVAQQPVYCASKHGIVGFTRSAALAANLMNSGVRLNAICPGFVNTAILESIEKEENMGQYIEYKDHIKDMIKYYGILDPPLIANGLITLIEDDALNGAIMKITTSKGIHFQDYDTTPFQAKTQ
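20 nM HPGD preincubated 15 min at room temperature with compound in 50 mM Tris-HCl pH 8, 0.01% Tween 20. Started with 1 mM NAD+ and 30 uM prostaglandin E2; NADH fluorescence (360/450 nm) read 5 times over 30-s intervals, last minus first.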
* = called active by the depositor; ? = inconclusive. % is set by controls: 0 for no effect and ±100 for the full control effect; potency is the fitted concentration of half-maximal effect. The list is partial, so the mix of outcomes need not match the whole.

Start of the data: the first 5 entries (preview)
SMILES	HPGD block
Cc1cccc(OC(=O)c2cn(C)nc2C(F)(F)F)c1C	-11%
S=c1sc2c(N3CCOCC3)ncnc2n1-c1ccccc1	-19%
O=C(NCc1ccccc1)c1ccco1	-17%
O=c1cc(CNc2ccc(Br)cc2)nc2sccn12	-6%
COC(=O)Cn1c2ccc(OC)cc2c2nc3ccccc3nc21	-12%

The whole of this part (from the top)
SMILES	HPGD block
Cc1cccc(OC(=O)c2cn(C)nc2C(F)(F)F)c1C	-11%
S=c1sc2c(N3CCOCC3)ncnc2n1-c1ccccc1	-19%
O=C(NCc1ccccc1)c1ccco1	-17%
O=c1cc(CNc2ccc(Br)cc2)nc2sccn12	-6%
COC(=O)Cn1c2ccc(OC)cc2c2nc3ccccc3nc21	-12%
O=C(O)c1ccc(C2CCCCC2)cn1	-16%
Cc1ccc(OC(C)C(=O)N2CCc3ccccc32)cc1 (configuration not stated)	-8%
O=C(O)[C@@H](c1ccccc1)N1Cc2ccccc2C1=O	-19%
COc1ccc(Nc2nc(C)c3ccccc3n2)cc1	-6%
O=C(O/N=C\c1ccc(N2CCCCC2)c([N+](=O)[O-])c1)c1cccc(C(F)(F)F)c1	-22%
Cn1c(=O)n(CC(N)=O)c2ccccc21	-14%
COc1ccc(N(C(=O)c2cccc([N+](=O)[O-])c2)S(=O)(=O)c2ccc3c(c2)n(C)c(=O)n3C)cc1	-27%
COCCCNC(=O)CS(=O)(=O)Cc1nc(-c2ccccc2C)oc1C	-19%
COc1ccc(N(C2CSC2)S(=O)(=O)c2ccccc2)cc1	-6%
COc1ccc(NC(=O)c2cccnc2Nc2ccc(OC)cc2)cc1	-9%
CCOC(=O)C1CCCN(C(=O)c2cn(CC)c3ccc(S(=O)(=O)N4CCCC4)cc3c2=O)C1 (configuration not stated)	-6%
Cn1cccc1Cc1nnc(SCC(=O)Nc2ccc(F)cc2)n1-c1ccc(F)cc1	-1%
CN(C)S(=O)(=O)c1cccc(C(=O)N2CCc3ccccc32)c1	-11%
Cc1cc(NC(=O)COC(=O)[C@H](Cc2c[nH]c3ccccc23)NC(=O)c2ccc(F)cc2)no1	-3%
CN(C)c1ccc(/C=C2/C(=O)Nc3ccccc32)cc1	-24%
Cc1noc(C)c1CSc1ccccc1C(=O)N1CCN(c2ccccc2)CC1	-14%
COC(=O)C1=C(C)N(Cc2cccnc2)C(=O)C1	-8%
CN1CCN(C(=O)c2ccc3c(c2)OCCO3)CC1	16µM*
CC(=O)c1cc(-c2nc3ccccc3n2C)n(C)c1	-4%
Cc1cccc(S(=O)(=O)Nc2ccc(-c3nc4ccc(C)cc4s3)cc2)c1	?

Continued:
SMILES	HPGD block
CCOC(=O)N1CCC(N2C(=O)c3ccccc3C2Nc2ccccc2)CC1 (configuration not stated)	-1%
COc1ccccc1-c1cn(S(=O)(=O)c2ccc(C)cc2)nc1N	-11%
CCC(=O)Nc1nonc1-c1nc2ccccc2n1Cc1ccccc1	-16%
CCOC(=O)N1CCN(C(=O)c2cc3c(=O)[nH]c4ccccc4c3s2)CC1	-20%
CN1CCN(/C=N/c2c(C#N)cnn2C)CC1	-11%
Cc1cc(C(=O)N2CCCCCC2)cs1	0.45µM*
Cc1ccc(C2=N/C(=C\N(C)C)C(=O)O2)cc1	-12%
Cc1ccc(S(=O)(=O)N2CCOC2CNC(=O)C(=O)NCc2ccco2)cc1 (configuration not stated)	-18%
O=C(c1cccs1)N1CCN(C/C=C/c2ccccc2)CC1	-9%
O=C(CCc1nc2ccccc2c(=O)[nH]1)OCc1cccc(C(F)(F)F)c1	-2%
Fc1ccccc1OCCSc1nnnn1-c1ccccc1	16µM*
COc1cc(CCNC(C)=O)c(C(=O)/C=C/c2cccc(OC)c2OC)cc1OC	-8%
O=C(CCC1N=C2c3ccccc3N=C(SCc3ccccc3Cl)N2C1=O)NCc1ccco1 (configuration not stated)	?
COc1cc(C2C(C#N)=C(N)Oc3cc(C)n(CC4CCCO4)c(=O)c32)cc2c1OCO2 (configuration not stated)	-19%
COc1ccc(-c2nnc(SCC(=O)Nc3sc4c(c3C#N)CCC4)n2CC2CCCO2)cc1 (configuration not stated)	-12%
O=[N+]([O-])c1ccc(CN2CCOCCOCCN(Cc3ccc([N+](=O)[O-])cc3)CCOCC2)cc1	-11%
CCCCNC(=O)N1CCOCCOCCN(C(=O)NCCCC)CCOCC1	-2%
COC(C(=O)NC1CCCCCCC1)c1ccccc1 (configuration not stated)	-2%
O=C(CC1Oc2ccccc2NC1=O)NCCc1ccccc1 (configuration not stated)	-18%
Cn1cccc1C(=O)OCC(=O)c1cc2ccccc2o1	28µM*
Cc1cccc(CNc2cc(-c3ccc(C(=O)N(C)C)cc3)ncn2)c1	?
Cc1cc(C)cc(-n2c(C)cc(C(=S)N3CCOCC3)c2C)c1	4µM*
COc1ccc(/C=C2\SC(=O)N(CCC(=O)Nc3ccccc3)C2=O)cc1OC	-21%
Nc1nnc(-c2ccccc2Cl)s1	?
COc1ccc(OCCC(=O)OCC(=O)NC(=O)NC(C)(C)C)cc1	-6%

Given as a markdown table: entries from further up
| SMILES | HPGD block |
| --- | --- |
| Cc1ccc(C2=N/C(=C\N(C)C)C(=O)O2)cc1 | -12% |
| Cc1ccc(S(=O)(=O)N2CCOC2CNC(=O)C(=O)NCc2ccco2)cc1 (configuration not stated) | -18% |
| O=C(c1cccs1)N1CCN(C/C=C/c2ccccc2)CC1 | -9% |
| O=C(CCc1nc2ccccc2c(=O)[nH]1)OCc1cccc(C(F)(F)F)c1 | -2% |
| Fc1ccccc1OCCSc1nnnn1-c1ccccc1 | 16µM* |
| COc1cc(CCNC(C)=O)c(C(=O)/C=C/c2cccc(OC)c2OC)cc1OC | -8% |
| O=C(CCC1N=C2c3ccccc3N=C(SCc3ccccc3Cl)N2C1=O)NCc1ccco1 (configuration not stated) | ? |

3 structures out of the list, sorted by length of the SMILES, low to high.
SMILES	HPGD block
Fc1ccccc1OCCSc1nnnn1-c1ccccc1	16µM*
Cc1ccc(OC(C)C(=O)N2CCc3ccccc32)cc1 (configuration not stated)	-8%
O=C(O/N=C\c1ccc(N2CCCCC2)c([N+](=O)[O-])c1)c1cccc(C(F)(F)F)c1	-22%

The listing continues.
SMILES	HPGD block
O=C(CSc1ncnc2scc(-c3ccc(Cl)cc3)c12)NCc1ccc2c(c1)OCO2	1%
CC(=O)Nc1cccc(NC(=O)CSc2ncc(-c3ccc(Cl)cc3)n2Cc2ccco2)c1	-24%
O=c1/c(=C\c2ccc3c(c2)OCO3)sc2n1CCCN=2	-16%
O=C(Nc1ccccc1N1CCCCC1)c1ccc(-c2ccc(Cl)cc2)o1	?
CCN(CC)P(=O)(/C(Cl)=C\Nc1c(C)n(C)n(-c2ccccc2)c1=O)N(CC)CC	-11%
CC(C)=CCC/C(C)=C/CC(C)(C)CNCCN1CCNCC1	-3%
O=C(C1CCN(S(=O)(=O)N2CCCCC2)CC1)N1CCCCC1	20µM*
c1ccc(-c2oc3ncnc(NCCCn4ccnc4)c3c2-c2ccccc2)cc1	?
N=C1CCC[C@@H]1C(=S)SCCC(N)=O	-10%
Cc1cc2cc(CN(Cc3nnnn3C3CCCCC3)CC3CCCO3)c(=O)[nH]c2cc1C (configuration not stated)	-7%
CCCCc1nc2c(c3c1C[C@H](C)OC3)CN(S(=O)(=O)c1c(C)noc1C)CC2	-9%
O=C(Cn1c(=O)n(-c2ccc(F)cc2)c(=O)c2sccc21)N1CCCC1	-17%
CCn1c(-c2ccccc2Cl)nn(CC(=O)Nc2ccc(OC)cc2)c1=S	-1%
CC1=CC(C)(C)N(C(=O)CSc2nccn2C)c2cc(C)ccc21	-21%
CC(C)N(CCC(=O)c1ccc2ccccc2c1)Cc1ccccc1	?
CC(NC(=O)CSc1nnc(-c2cc3cc(Cl)ccc3o2)n1C)c1ccccc1 (configuration not stated)	-6%
CCn1c(SCC(=O)c2ccc3c(c2)OCCO3)nnc1-c1ccco1	?
Cc1nn(-c2ccccc2)c(Cl)c1C(=O)OC(C)C(=O)NC(=O)NC1CCCCC1 (configuration not stated)	-15%
COC(Cc1n[nH]c(=S)n1-c1ccccc1)OC	-12%
CC(C)=NNc1nc2sc3c(c2c(=O)[nH]1)CC(C)(C)OC3	-5%
CN(C)c1ccc(/C=N/NC(=O)CCC(=O)NCc2ccccc2)cc1	?
C=C(CO)C1Cc2c(ccc3c(=O)c4c(oc23)COc2cc(OC)c(OC)cc2-4)O1 (configuration not stated)	-4%
COc1ccc(S(=O)(=O)N2CCCC(C(=O)NC3CCCCC3)C2)cc1 (configuration not stated)	-17%
O=C(CN(Cc1ccc(F)cc1)C(=O)Cn1nnc2ccccc21)NCC1CCCO1 (configuration not stated)	2%
CC(=O)c1cccc(NS(=O)(=O)c2cc(OCC(N)=O)c(C)cc2Cl)c1	-8%

Remaining list, next part.
SMILES	HPGD block
O=C(Nc1ccccc1NC(=O)NC1CCCCC1)NC1CCCCC1	-10%
CCOC(=O)c1c(CN2CCCCC2)n(C)c2cc(Br)c(O)c(CN(C)C)c12	-19%
COc1ccc(C(C)(C)C)cc1NC(=O)Nc1ccc2c(c1)OCO2	-13%
COc1ccc(NC(=S)NC2CCS(=O)(=O)C2)cc1 (configuration not stated)	-7%
Cc1ccc(-c2c3c([nH]c(=S)c2C#N)CCCC3)o1	8.9µM*
Cc1cc(C)c(S(=O)(=O)Nc2cccc(/C=C/C(=O)O)c2)c(C)c1	-2%
COc1ccc(CCNC(=O)C2CC(c3ccccc3[N+](=O)[O-])=NO2)cc1 (configuration not stated)	-4%
Cc1ccc(S(=O)(=O)/N=C2\C(=O)c3ccccc3C([O-])=C2n2cc[n+](CCC(C)C)c2)cc1	-4%
CCc1ccccc1S(=O)(=O)Cc1ccc(C(=O)NCc2ccc3c(c2)OCO3)o1	-6%
O=S(=O)(c1cccc2nsnc12)N1CCc2ccccc2C1	-11%
Cc1cc(C)cc(NS(=O)(=O)c2ccc(Oc3ncc(C(F)(F)F)cc3Cl)cc2)c1	-22%
CCn1cc(CNC(=O)NC2CCCCC2)c(C)n1	-5%
O=C(CCN1CCc2ccccc2C1)c1ccc2c(c1)OCCO2	?
Cc1noc(C)c1S(=O)(=O)N1CCC(C(=O)N2CCN(Cc3ccc4c(c3)OCO4)CC2)CC1	-1%
O=C1CCCC2=C1C(Cc1ccccc1)C1=C(CCCC1=O)O2	-10%
CCCNC(=O)Cn1c(=O)oc2ccccc21	-6%
COC(=O)[C@H](Cc1ccccc1)NC(=O)NCCc1ccc(S(N)(=O)=O)cc1	-11%
O=C1CCCN1c1ccc(S(=O)(=O)NCCc2ccc(Cl)cc2)cc1	-17%
COC(=O)c1ccc(NCCC(=O)O)cc1	-7%
CCN1CCN(Cc2coc3ccc(C)cc3c2=O)CC1	-12%
COC(=O)c1cccc(NC(=O)/C=C/c2ccc3c(c2)OCO3)c1	-21%
O=C(O)CCCc1ccccc1	-7%
Cc1ccsc1-c1n[nH]c(=S)n1CC(C)C	-18%
CC(Sc1nnc(-c2cccs2)n1Cc1ccccc1)C(=O)NCc1ccc2c(c1)OCO2 (configuration not stated)	-9%
CCCNC(=O)Nc1ccc2c(c1)N(C)C(=O)c1ccccc1S2	?

Additional records:
SMILES	HPGD block
Cc1ccccc1/C=C/c1nc2ccccc2c(=O)n1Cc1ccccc1	-19%
COc1cc(/C=C/C(=O)O)cc(S(=O)(=O)NCCO)c1OC	?
CC(Oc1ccccc1)c1ccnn1S(C)(=O)=O (configuration not stated)	-11%
O=C1CN(c2ccccc2F)C(=O)CN1c1ccccc1F	-3%
O=C(NCc1cn2ccccc2n1)c1ccc(Br)o1	?
CCC(=O)Nc1ccc2c(c1)OCCO2	-8%
CCOC(=O)CNS(=O)(=O)c1cc(-c2nnc(Nc3ccc4c(c3)OCO4)c3ccccc23)ccc1C	-23%
O=C(O)C1C2C=CC(C2)C1C(=O)NCCCN1CCOCC1 (configuration not stated)	-6%
O=C(O)C(Cc1ccccc1)N1C(=O)c2ccccc2C1=O (configuration not stated)	0%
COc1ccc(COc2cc(-c3cccc(OC)c3)nc3ccc(N)cc23)cc1	?
COCCCNC(=O)CCCC(=O)NCCCOC	-11%
Cc1ccc([N+](=O)[O-])cc1NC(=S)NC(=O)c1ccco1	-16%
O=C(O)C1CC(=O)N(Cc2cccnc2)C1 (configuration not stated)	-2%
COC(=O)c1[nH]c2ccccc2c1NC(=O)CCN1CCN(C2CCCCC2)CC1	-14%
CCCOc1ccc(OC(=O)c2ccc(Br)o2)cc1	-6%
Cc1ccc(OC(=O)COc2ccccc2C)c(-n2nc3ccccc3n2)c1	?
CCCC1(CCC)NC(=O)N(CC(=O)c2cc(C)n(-c3ccc4c(c3)OCO4)c2C)C1=O	-9%
O=C(NC1CCCCCC1)C1c2ccccc2C(=O)N1Cc1cccnc1 (configuration not stated)	-7%
COC(=O)[C@@]1(Cc2ccc(OC)cc2)[C@H]2c3cc(C(=O)N(C)C)n(Cc4ccc(OC)c(OC)c4)c3C[C@H]2CN1C(=O)c1ccccc1	-8%
COc1ccc(CNC(=O)c2cccnc2Sc2ccc(C)c(C)c2)cc1	-23%
Cc1ccc(C2SCCN2C(=O)c2ccc([N+](=O)[O-])cc2)cc1 (configuration not stated)	-6%
CC(=O)c1cccc(NC(=S)NCCC2=CCCCC2)c1	-28%
CCOC(=O)C1=NNC2(c3ccc(Cl)cc3)C(=O)N(c3ccc(C)cc3)C(=O)C12 (configuration not stated)	-8%
Cc1cccc(S(=O)(=O)C(C#N)c2nc3ccccc3nc2N2CCCC2)c1 (configuration not stated)	-28%
O=C1N(c2ccccc2)C2CS(=O)(=O)CC2N1c1ccc(Br)cc1 (configuration not stated)	-28%
CCOC(=O)C(NC(=O)c1ccccc1Cl)(Nc1ccc(C(F)(F)F)cc1)C(F)(F)F (configuration not stated)	-16%
C=CCNc1nc2c3ccccc3n(C(C)=O)c2s1	-3%
Cc1ccccc1NC(=O)c1sc(Cl)nc1-c1ccccc1	-9%

Source: PubChem (National Center for Advancing Translational Sciences (NCATS))
